# Compound activity from PubChem.
# Vaccinia pol inh – inhibitors of vaccinia virus processive DNA synthesis (E9 polymerase) | in vitro processive DNA synthesis, absorbance read-out; active compounds read low; some inactives read as strong as hits | normalized absorbance, % (concentration not given with the values) | 0.94% of 46,000 active;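 active means replicate mean up to 90% and picked by the depositor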;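 further: 100% = median of the test wells of a plate; 100 nL library stock went into each well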
# * marks the source's active call; other numbers are inactive results. Only part of the results is shown; the hit share may differ from the screen's.
SMILES,Vaccinia pol inh
Clc1ccc(/C=N/N2CCOCC2)cc1,107
CCOC(=O)c1ccc(NC(=O)CSc2nccn2-c2cccc(C)c2C)cc1,92
CN(C)c1ccc(C=Nc2ccc(C(=O)O)cc2)cc1,77
CCSc1nnc(NC(=O)c2ccccc2Cl)s1,100
Cc1cc(CO)c(C)n1-c1ccncc1,102
CSC(=Nc1c(C)cccc1C)N(C)C,96
O=C(Cn1c(=O)c(C(F)(F)F)nc2ccccc21)NCc1ccccc1,98
Cc1c(CC(=O)O)c(=O)oc2c(C)c3occ(C(C)(C)C)c3cc12,98
CCCc1c(C(=O)OCC)c(C(=O)OCC)c2c(-c3ccccc3)nc(N3CCOCC3)nn12,100
NC(=O)C12CC3CC(CC(Cl)(C3)C1)C2,98
O=C(C(c1ccccc1)c1ccccc1)N1CCNCC1,104
Cc1cccc(C)c1NC(=O)CCCN1CC(C)OC(C)C1 (stereo unspecified),84
CCN(CC)C(=O)c1cc(-c2ccc(C)cc2)on1,105
CCOC(=O)c1c(C)c(=O)oc2c1c(=O)[nH]n2-c1ccccc1,95
CNC(=O)CSc1nc(-c2ccccc2)c(-c2ccccc2)[nH]1,100
CCC1CCCCN1C(=O)CSc1nc2ccccc2[nH]1 (stereo unspecified),101
O=C1CCCC2=C1C(c1ccc(Br)cc1)n1nc(-c3ccco3)nc1N2 (stereo unspecified),101
Cc1ccc(S(=O)(=O)NC(=O)Nc2cccc(C(F)(F)F)c2)cc1,100
O=C(NCO)c1ccccc1,102
O=C(CCSc1ccccc1Cl)NC1CCCCCC1,96
CC1SC(c2ccc(Br)cc2)N(c2ccccc2)C1=O (stereo unspecified),100
CCCn1c(SCC(=O)c2ccccc2)nc2ccccc21,97
NC(=O)N1CCc2ccccc21,100
Cc1cccc(NC(=O)Cn2c(=O)n(-c3ccc(F)cc3)c(=O)c3sccc32)c1,91
Cc1cccc(N2C(=O)/C(=C/c3ccc(O)c(O)c3)SC2=S)c1C,100
COc1ccc(Nc2nc(-c3ccc(OC)cc3)no2)cc1,109
NC(=O)c1cc2ccccc2nc1C(N)=O,98
CC(OC(=O)c1ccc(O)cc1)C(=O)Nc1cc(Cl)cc(Cl)c1 (stereo unspecified),106
O=C(COC(=O)c1cccnc1Cl)c1cccc(Cl)c1,104
O=C(OCC1CCCN2CCCCC12)c1cc2nc(-c3ccco3)cc(C(F)(F)F)n2n1 (stereo unspecified),100

# Already shown: an excerpt of the list.
SMILES,Vaccinia pol inh
COc1ccc(Nc2nc(-c3ccc(OC)cc3)no2)cc1,109
NC(=O)c1cc2ccccc2nc1C(N)=O,98
CC(OC(=O)c1ccc(O)cc1)C(=O)Nc1cc(Cl)cc(Cl)c1 (stereo unspecified),106
O=C(COC(=O)c1cccnc1Cl)c1cccc(Cl)c1,104
O=C(OCC1CCCN2CCCCC12)c1cc2nc(-c3ccco3)cc(C(F)(F)F)n2n1 (stereo unspecified),100

# Next section
SMILES,Vaccinia pol inh
COc1ccc(CNc2ccccc2)cc1Br,102
Cc1nnc(-c2cccc(C(F)(F)F)c2)[nH]c1=O,91
O=C(Nc1nc2c(s1)CCCC2)c1ccccc1,100
Cc1ccccc1NC(=S)NN1CCN(C)CC1,99
Cc1c(C)c(C)c(S(=O)(=O)NC(C)(C)C)c(C)c1C,94
COc1ccc(CCN2C(=O)/C(=C/c3ccccc3Cl)SC2=S)cc1OC,103
CC1Cc2ccccc2N1C(=O)c1cccc(C(=O)N2c3ccccc3CC2C)n1 (stereo unspecified),100
O=C(CCCC(=O)Nc1ccc(F)cc1)Nc1ccc(F)cc1,99
O=C(CSc1nnnn1-c1ccccc1)NCCC12CC3CC(CC(C3)C1)C2,100
COc1ccc(C(=O)N2CCCC2=O)cc1,100
Cc1c(C#N)c2ccccc2n1CC(N)=O,91
Cc1oc(-c2ccc(Cl)cc2)cc1COC(=O)Nc1ccccc1,98
CC(=O)Nc1cc(-c2ccc(Br)cc2)nn1Cc1ccc(Cl)cc1,94
CCOC(=O)c1sc2nc(SCC(=O)c3ccc(Br)cc3)n(N)c(=O)c2c1C,103
COc1ccccc1NC(=O)CSc1nncn2c1cc1oc(C)cc12,85
Cn1cc(Cl)c(C(=O)NCC(=O)c2ccccc2)n1,100
Fc1ccc(-c2ccnc3ncnn23)cc1,102
C[N+](C)(Cc1ccc(Cl)cc1)NCc1ccc(Cl)cc1,98
O=C(Oc1nc2ccccc2s1)c1ccccc1C(=O)c1ccccc1,95
CN(C(=O)CSc1nncc2ccccc12)C1CCCCC1,90
Cc1cccc(NC(=O)CSc2c[nH]c3ccccc23)c1,99
CC(=O)Oc1cc(-c2ccccc2)nn1C,118
CCC1Oc2ccc(C)cc2NC1=S (stereo unspecified),96
O=C(COc1ccc(Cl)cc1Cl)OCC(=O)N1CCCc2ccccc21,105
CCN(CC)c1ncnc2c1cnn2-c1ccc(OC)cc1,100
CCCC(=O)Nc1ccc(-c2nc3ccccc3s2)cc1,96
FC(F)(F)c1cc(-c2ccccc2)nc(NCc2cccnc2)n1,88
N#Cc1ccc(C(=O)Oc2ccc3ccccc3c2)cc1,105
CCCN(CC1CC1)C(=O)c1cc(S(=O)(=O)N(CC)CC)ccc1Cl,96
COc1ccccc1NC(=O)c1sc2nc(-c3cc4cccc(OC)c4oc3=O)[nH]c(=O)c2c1C,98
O=C(COc1cccc2ccccc12)OC1CCS(=O)(=O)C1 (stereo unspecified),98
CCCCC/C=C\C/C=C\C/C=C\C=C\[C@H](CCCC(=O)O)OO,100
O=C(O)c1ccc(Cl)c(NC(=O)c2ccco2)c1,90
COc1ccc(-c2c(C)oc3c(CN4CCN(C)CC4)c(O)ccc3c2=O)cc1,104
Cc1c(C)c(C)c(CSC(=Nc2ccc(C(C)C)cc2)N2CCOCC2)c(C)c1C,109
CCC(=O)c1cn(Cc2ccccc2C#N)c2ccccc12,108
c1ccc(-c2nnc(N3CCc4ccccc43)nc2-c2ccccc2)cc1,105
Cc1ccc(C(=O)c2ccc(C)c(C)c2)cc1C,99
OC(c1ccccc1)(c1ccccc1)C1CCN(C(=S)NCCc2ccccc2)CC1,100
O=C(O)COc1ccc(C(=O)c2ccccc2)cc1,93
Clc1ccc(-c2nnc3sc(-c4ccc(Br)o4)nn23)cc1,101
OC1CCN(c2ncnc3nc[nH]c23)CC1,101
O=C1CSC2(CCCCC2)N1Nc1ccccc1,101
O=C(/C=C/c1ccccc1)OCC(=O)c1cc2ccccc2o1,93
C=C(C)COc1ccc(/C=C(/NC(=O)c2ccccc2)C(=O)O)cc1OC,99
O=C(O)/C=C1\C(=O)Nc2ccccc21,104
Cn1nnc2c(NCC(=O)C(C)(C)C)nc(Cc3ccc(Cl)cc3Cl)nc21,101
NC(=O)CCn1cnc2ccccc21,102
COc1ccc(NS(=O)(=O)c2c(C)nc3sccn3c2=O)cc1Cl,87
O=C(CSc1nn2cnnc2s1)N(C1CCCCC1)C1CCCCC1,102
CC(=O)Nc1c(-c2ccccc2)nc2ccccn12,101
CCOC(=O)c1c(C)oc2c1c(C=NCc1cccnc1)c(O)c1ccccc12,98
CSc1ccc(C2Nc3ccccc3C(=O)N2c2ccc(C)cc2)cc1 (stereo unspecified),99
CC(=O)OC1CC(C)(C)N(OC(=O)c2ccc(-n3cnnn3)cc2)C(C)(C)C1,100
CCOC(=O)c1c(Cl)c2ccccc2n(C)c1=O,99
O=S(=O)(NCCNc1ncnc2scc(-c3ccccc3)c12)c1ccc(Cl)cc1,113
CCOC(=O)c1cc(-c2ccccc2)sc1NC(=O)CN1CCCC1,74
O=C(C1CC1)N1N=C(c2ccc(Cl)cc2)CC1(O)C(F)(F)F (stereo unspecified),100
COC(=O)C(C)NC(=O)C12CC3(C)CC(C)(CC(C)(C3)C1)C2 (stereo unspecified),100
Cc1cc(C)c2c(c1)CC(C)(C)c1[nH]c(-c3ccccc3)nc1-2,96
# Continuation:
SMILES,Vaccinia pol inh
NNc1nc(NN)nc(Nc2cccc(C(F)(F)F)c2)n1,97
CCn1ccnc1P(=O)(c1ccccc1)N1CCOCC1 (stereo unspecified),101
O=C(Cn1nnc2ccccc21)C1CC1,100
Cc1ccc(CNC(=O)CSc2nc3ccsc3c(=O)n2C2CC2)cc1,87
Cc1cc(NC(=O)c2cc(-c3ccc(F)cc3)no2)nn1CC(=O)N1CCC(C)CC1,98
CCOC(=O)N1CCC(N(CCOC)C(=S)Nc2ccc(C)cc2C)CC1,96
COc1ccccc1-c1nn(CCC(=O)NC2CCCC2)c2nc(C)cc(C)c12,103
Nc1nc(=Nc2ccccc2)n2c(n1)sc1ccccc12,100
O=C(Cc1ccccc1)Nn1cnc2ccccc21,105
COC(=O)C1CN(C(=O)/C=C/c2ccccc2)c2ccccc2O1 (stereo unspecified),104
O=C(Nc1ccc(N2CCOCC2)cc1)c1cccs1,90
COc1ccc(OC)c(/C=N/N2C(=O)C3C(C2=O)C2C=CC3C23CC3)c1 (stereo unspecified),98
O=C(OCC(=O)N1CCc2ccccc2C1)c1ccc(F)cc1Cl,104
Cc1cccc(/N=C2/NC(=O)C(Cc3cccc(C(F)(F)F)c3)S2)n1 (stereo unspecified),98
CCOC(=O)Cc1csc(NC(=O)c2cc(Cl)sc2Cl)n1,102

# Grouped by structure, those above with an NH in an aromatic ring
SMILES,Vaccinia pol inh
CCOC(=O)c1c(C)c(=O)oc2c1c(=O)[nH]n2-c1ccccc1,95
CNC(=O)CSc1nc(-c2ccccc2)c(-c2ccccc2)[nH]1,100
CCC1CCCCN1C(=O)CSc1nc2ccccc2[nH]1 (stereo unspecified),101
Cc1nnc(-c2cccc(C(F)(F)F)c2)[nH]c1=O,91
Cc1cccc(NC(=O)CSc2c[nH]c3ccccc23)c1,99
COc1ccccc1NC(=O)c1sc2nc(-c3cc4cccc(OC)c4oc3=O)[nH]c(=O)c2c1C,98
OC1CCN(c2ncnc3nc[nH]c23)CC1,101
Cc1cc(C)c2c(c1)CC(C)(C)c1[nH]c(-c3ccccc3)nc1-2,96

# (more compounds)
SMILES,Vaccinia pol inh
CN(C)c1ccc(C(=S)N2CCN(C(c3ccccc3)c3ccccc3)CC2)cc1,100
Cc1ccc(NC(=O)COC(=O)c2nc(Cl)ccc2Cl)cc1,102
CC1CCCC(C)N1CCNc1nc2ccccc2c2nc(-c3ccccc3)nn12 (stereo unspecified),59*
Cc1cc(C)c(C#N)c(SCC(=O)NCC2CCCCC2)n1,100
Cc1ccc(-c2cccc(NC(=O)C3C4C=CC(C4)C3C(=O)O)c2)o1 (stereo unspecified),95
CSc1nc2sc3c(c2c2nncn12)CCC(C(C)(C)C)C3 (stereo unspecified),99
COc1cccc(C(c2cc3c(cc2O)OCO3)N2CCCC2)c1O (stereo unspecified),100
O=C(Nc1cc(F)ccc1F)C1(c2ccc(F)cc2)CCCC1,95
Cc1ccc(CS(=O)Cc2ccc(C(=O)N3CCN(Cc4ccccc4)CC3)o2)cc1 (stereo unspecified),96
O=C(Nc1csnc1-c1c(Cl)cccc1Cl)NN1CCCCC1,101
O=C(O)c1cnn2c(C(F)(F)F)cc(-c3ccco3)nc12,90
N#CCOc1nc(N2CCCCC2)nc(N2CCCCC2)n1,89
NC(N)=NOCC[C@H](N)C(=O)O,99
OC(c1cccs1)c1nccc2ccccc12 (stereo unspecified),94
NC(=S)c1ncc(C(F)(F)F)cc1N1CCCC1,99
CC(C)(C)c1ccc(S(=O)(=O)CCSc2nc3ccccc3s2)cc1,100
O=C(CCn1c(=O)c2cccn2c2cccnc21)NCc1ccccc1,99
NC(=O)c1oc2ccccc2c1NC(=O)C(c1ccccc1)c1ccccc1,94
Cc1nn(C)c(Sc2ccc(Cl)cc2)c1C(N)=O,86
N#CC1(C#N)C(c2cccnc2)C(C(=O)c2ccccc2)N2c3ccccc3C=CC21 (stereo unspecified),100
CC(C)COc1cccc(OCC(=O)O)c1,101
CCC/C(O)=C1\C(=O)CC(C)(C)CC1=NCCc1ccc(OCC)c(OCC)c1,100
CC(C)(C)c1ccc(O)c(N)c1,100
O=S(=O)(c1ccccc1)N1CCN(S(=O)(=O)c2ccccc2)CC1,106
CN(C(=O)c1ccccc1C(=O)O)C1CC(C)(C)NC(C)(C)C1,100
CC(=O)OC[C@H]1OC[C@H](OC(C)=O)[C@@H](OC(C)=O)[C@H]1OC(C)=O,108
Cc1cccc(N=Cc2c(Nc3cccc(C)c3)nc3ccccn3c2=O)c1,99
N#Cc1ccc(-n2nnc3ccccc32)cc1C#N,97
Cc1cccc(-n2cc(-c3cc4cc(Cl)ccc4oc3=O)[nH]c2=S)c1,101
CC(C)(C)NC(=O)N1CCOCC1,83

# Exported as labelled records: part of the list above.
> Fc1ccc(-c2ccnc3ncnn23)cc1
  Vaccinia pol inh: 102
> NNc1nc(NN)nc(Nc2cccc(C(F)(F)F)c2)n1
  Vaccinia pol inh: 97
> Cc1c(C)c(C)c(CSC(=Nc2ccc(C(C)C)cc2)N2CCOCC2)c(C)c1C
  Vaccinia pol inh: 109
> Cc1c(C#N)c2ccccc2n1CC(N)=O
  Vaccinia pol inh: 91

# (listing goes on)
SMILES,Vaccinia pol inh
Cc1ccc(Cn2c(C)c(CNC(C)CCc3ccccc3)c(C(=O)O)c2C)cc1 (stereo unspecified),103
O=C1CC(c2ccco2)Cc2nc(NC3CC3)ncc21 (stereo unspecified),100
Cc1ccccc1OCC1CN(CN2CCC(C)CC2)C(=O)O1 (stereo unspecified),99
CCSc1nc2ccccc2n1CC(=O)NCc1ccc(OC)cc1,104
O=C(CSc1nnc(NC(=O)c2ccc(Cl)c(Cl)c2)s1)Nc1ccc(F)c(F)c1F,101
NC(=O)CSc1nnc(-c2cccs2)n1-c1ccc(Cl)cc1,87
CC1CCN(C(=O)COC(=O)c2ccc3ccccc3n2)CC1,101
CCOC(=O)c1cc(CC)sc1NC(=O)CC1Nc2ccccc2NC1=O (stereo unspecified),101
FC(F)(F)Cc1nc2ccccc2s1,88
CCCOC(=O)C[n+]1cn(CC)c2ccccc21,105
Oc1ccc(-c2cn3ccsc3n2)cc1,110
O=C(Nc1nnc(SCc2ccccc2)s1)c1cccs1,99
O=C(NCCc1ccccc1)C1CCCN(c2nnc(-n3cccc3)s2)C1 (stereo unspecified),90
COC(=O)/C=C/S(=O)(=O)c1ccc(NC(C)=O)cc1,100
O=C(Nc1ccccc1)Nc1ccccc1SCCS(=O)(=O)c1ccc(Cl)cc1,118
COC(=O)C1=C(Nc2ccccc2NS(=O)(=O)c2ccc(C(F)(F)F)cc2Cl)CSC1,83
C1=C(c2ccccc2)Nc2nc3ccccc3n2C1c1ccccc1 (stereo unspecified),101
